# gsp antagonist – gsp mutant antagonism; gsp-mutant cells, cAMP HTRF, 30 min; control for the full effect not named in the record; Potency, µM (highest dose often 76.9 µM), for the others: at the top dose activity change, negative = inhibition, usual class: inhibitors; 340,000 tested, 0.4% active; AID 624288; active = falling curve of any shape with a large fitted effect; inconclusive = falling curve, mostly with a smaller effect; inactive = flat or rising curve; cell line not stated here;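 note: intracellular cAMP measured with PDE inhibitor Ro 20-1724 present during compound exposure; potency is the fitted concentration of half-maximal effect; % is set by controls: 0 for no effect and ±100 for the full control effect; nearly all actives have a fitted effect of over 65% in size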
#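 Cells, 2000/well, grown 16–24 h in DMEM 10% FBS with 0.5 mg/ml G418, then compounds plus […] (300 uM addition stock), 30 min at 37C. cAMP read by HTRF (cAMP-d2 and anti-cAMP antibody-K in lysis buffer) after 30 min RT.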
# Menin MLL FP FL – inhibitors of human menin-MLL interaction, wild-type MLL peptide; Fluorescence polarization, fluorescein-MLL peptide displacement from menin; FP activity change, % at 61.4 µM; 290,000 tested, under 10 active; AID 1766; inconclusive = falling polarisation curve, or a change in total fluorescence; inactive = total fluorescence flat and polarisation flat or rising; no compound was filed as active; the % refers to the polarisation; negative = inhibition;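 note: % of control where 0% means no effect; inhibitors lower the polarisation; unlabelled MLL peptide was the positive control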
# gsp agonist – activates gsp, the McCune-Albright syndrome mutation | AID 624287 | Potency, µM (series often up to 76.9 µM), for the others: at the highest dose activation (cAMP increase), actives largely listed as activators | gsp mutant cells, cAMP HTRF, 30 min; control for the full effect not named in the record | 340,000 tested, 0.13% active; active = well fitted activation curve with a large enough effect; inconclusive = small, poorly fitted or top-dose-only effect, or another doubt; inactive = no such curve, though single readings can be large or run the other way; cell line not stated here;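 note: phosphodiesterase inhibitor Ro 20-1724 added with compounds to block cAMP breakdown; potency is the fitted concentration of half-maximal effect; nearly all actives have a fitted effect of over 60% in size; about a fifth of the inactives were tested at one dose only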
#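 Cells in DMEM/10% FBS with G418 were pretreated with compounds in DMSO plus […] (300 uM stock) for 30 min at 37C. cAMP was measured by HTRF (cAMP-d2 plus anti-cAMP antibody-K) after 30 min at room temperature.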
# ClpP mod – qHTS Assay for Activators of ClpP; ATP-dependent Clp protease proteolytic subunit (Bacillus subtilis (strain 168)), P80244; purified B. subtilis ClpP, FRET peptide cleavage, 20 min; Potency, µM (top dose mostly 57.5 µM), without a hit: top-dose activity change, negative = active; 340,000 tested, 1.9% active; AID 651965, 2013; active = well fitted falling curve with a large enough effect; inconclusive = small, poorly fitted or top-dose-only effect; inactive = no such curve, though single readings can be large or run the other way; note: potency is the fitted concentration of half-maximal effect; the source files actives as falling curves though it sought activators and does not explain the sign; nearly all actives have a fitted effect of over 65% in size; many hits overshoot -100%
# Target sequence (P80244 whole entry, looked up): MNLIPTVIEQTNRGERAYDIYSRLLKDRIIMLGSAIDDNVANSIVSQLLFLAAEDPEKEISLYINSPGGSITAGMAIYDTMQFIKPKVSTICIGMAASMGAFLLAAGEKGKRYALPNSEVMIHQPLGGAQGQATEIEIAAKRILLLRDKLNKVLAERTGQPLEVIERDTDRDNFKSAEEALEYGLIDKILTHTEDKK
#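 FRET quenching reversal measured ClpP activation: 10 microg/mL B. subtilis ClpP at pH 8 with the FRET-FV decapeptide, read at 430 nm after 320 nm excitation. The 20-min minus 0-min signal was scaled between DMSO/no-enzyme wells and ADEP (5.8 microM final).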
# PINK1 modulator – PINK1 expression modulation; PINK1 immunofluorescence, high-content cytometry, 24 h; Potency, µM (doses to about 76.6 µM), inactives show top-dose activation (PINK1 increase), hits mostly activators; 410,000 tested, 0.2% active; AID 624263; active = well fitted activation curve with a large enough effect; inconclusive = small, poorly fitted or top-dose-only effect; inactive = flat fitted curve, though single readings scatter; cell line not stated here;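 note: potency is the fitted concentration of half-maximal effect; % of control where 0% means no effect; nearly all actives have a fitted effect of over 65% in size; a mitochondrial uncoupler was the plate control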
#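 Stable cell line treated 24 h with compounds at 5 concentrations (CCCP controls), then fixed and immunostained for PINK1 plus nuclear and cell stains; PINK1 immunofluorescence quantified by laser-scanning microplate cytometry.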
# Sfp inh – inhibitors of Bacillus subtilis Sfp phosphopantetheinyl transferase. 310,000 tested, 3.5% active. Biochemical Sfp PPTase activity, qHTS. Q9F4F7. Potency, µM, for inactives: max response, negative = inhibition, actives largely listed as inhibitors; active = well fitted inhibition curve with a large enough effect; inconclusive = small, poorly fitted or top-dose-only effect, or another doubt; inactive = no such curve, though single readings can be large or run the other way;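 note: the enzyme is Sfp with the accession as filed and its product quenches rhodamine fluorescence; potency is the fitted concentration of half-maximal effect; 0% = enzyme reaction without inhibitor and -100% = no enzyme wells; top concentration of the series not given in the record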
#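 Step 1, compound plus 15 nM Sfp-PPTase, 15 min, room temperature. Step 2, add rhodamine-CoA (5 uM) and BHQ-2-YbbR (12.5 uM). Step 3, read 525/598 nm fluorescence at 0 and 30 min.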
# D2 agonist – agonists of human D2 dopamine receptor (beta-arrestin); P14416; DiscoveRx PathHunter D2 beta-arrestin, luminescence, 90 min; 100% = 57 uM dopamine signal; activation, % (test concentration not listed); 360,000 tested, 0.084% active; in the data active = activation above about 40%; inconclusive = about 15% to 40%; inactive = below about 15%; note: compound concentration not given in the record; the text of the record calls up to 30% inactive
# Target sequence (P14416 whole entry, looked up): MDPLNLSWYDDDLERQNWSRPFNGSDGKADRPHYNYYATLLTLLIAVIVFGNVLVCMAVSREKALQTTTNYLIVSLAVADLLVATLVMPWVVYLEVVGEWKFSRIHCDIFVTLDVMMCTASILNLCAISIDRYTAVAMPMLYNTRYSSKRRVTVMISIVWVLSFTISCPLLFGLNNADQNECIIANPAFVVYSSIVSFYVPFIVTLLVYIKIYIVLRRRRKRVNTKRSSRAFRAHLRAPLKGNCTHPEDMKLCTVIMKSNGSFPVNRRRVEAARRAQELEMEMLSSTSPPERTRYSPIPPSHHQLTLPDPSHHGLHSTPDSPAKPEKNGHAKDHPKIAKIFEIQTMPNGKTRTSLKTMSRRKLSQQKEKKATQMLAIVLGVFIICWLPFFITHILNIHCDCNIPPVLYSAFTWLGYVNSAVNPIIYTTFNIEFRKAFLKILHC
#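 Agonist mode: compounds alone added to overnight-plated D2 PathHunter cells for 90 min at 37 C, with 57 uM final dopamine (EC100) defining full response. Beta-arrestin recruitment detected by chemiluminescent reagent, read after 1 h at ambient temperature.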
# * = called active by the depositor; ? = inconclusive; / = not tested or not shown; [ ] = remark or other dose.
SMILES,gsp antagonist,Menin MLL FP FL,gsp agonist,ClpP mod,PINK1 modulator,Sfp inh,D2 agonist
O=C(Nc1ccc(-c2cn3c(n2)SCC3)cc1)c1ccc2c(c1)OCO2,-18.0%,23.2,-9.0%[15.4 µM],0.8%,?,14.2%,-1.5
CCNc1nc(NC(C)C)nc(SCCOc2ccc(C)cc2)n1,-6.9%,1.2,-40.9%[inhibitor],-2.0%,12.2%,15.2%,-3.2
NS(=O)(=O)c1ccc(CNC(=O)c2csc3c2CCCC3)cc1,22.9%,-1.2,-0.4%,/,1.2%,3.1%,-1.5
COc1nc(NCC(C)C)nc(Oc2ccc(=O)n(-c3ccccc3)n2)n1,4.2%,2.1,-12.7%,-1.0%,0.1%,17.7%,-1.8
Cc1nn(CC(=O)Nc2ccc(C(=O)N3CCCC3)cc2)c(=O)c2ccccc12,-19.8%,-2.3,11.4%,-1.9%,-1.8%,17.9%,0.9
COc1ccc(NC(=O)c2cnc3ccccn3c2=O)c(OC)c1,12.3%,/,-10.9%,-3.4%,4.3%,/,-5.2
O=C(CCN1C(=O)/C(=C/c2ccccc2F)SC1=S)NCCCn1ccnc1,-13.6%,/,-15.1%,1.2%,1.8%,-12.4%,5.5
CCOC(=O)C(NC(C)=O)(Nc1ccc(S(N)(=O)=O)cc1)C(F)(F)F (centres undefined),9.7%,/,9.3%,-0.8%,3.2%,4.8%,3.8
COCC(=O)N1CCC(Oc2ccc(C(=O)NC(C)c3csc(C)n3)cc2)CC1 (centres undefined),14.1%,2.5,1.8%,1.1%,0.4%,5.5%,-4.1
CC1(C(=O)NCC2CCCCC2)CCN1CCc1ccccc1 (centres undefined),/,/,/,0.1%,1.5%,/,-5.6
Cc1ccc(C)c(NC(=S)N2CCC(c3nc4ccccc4s3)CC2)c1,?,-4.3,-18.0%,1.5%,4.3%[38.3 µM],-1.1%,-4.0
CCCCn1c(N)c(N2CCOCC2)c(=O)n(CC(=O)NC(C)c2ccccc2)c1=O (centres undefined),7.5%,4.1,-4.6%[15.4 µM],0.3%,0.7%,16.2%,-9.3
CCC(=O)c1cn(CC(=O)Nc2cccc(C)c2)c2ccccc12,12.4%,0.2,-21.0%,-0.7%,8.6%,7.7%,-0.9
COc1cc(C(O)P(=O)(OC(C)C)OC(C)C)cc(OC)c1OC (centres undefined),-2.9%,1.4,-0.8%[15.4 µM],?,1.0%,6.3%,-1.1
Cc1cc(C)cc(N(CC(=O)NC2CCC(C)CC2)S(=O)(=O)c2c(C)[nH]c(=O)[nH]c2=O)c1 (centres undefined),0.2%,0.5,-2.0%,-0.1%,0.2%,0.3%,-2.5
Cc1cc(C)n(Cc2ccc(NC(=O)c3nn(C)cc3[N+](=O)[O-])cc2)n1,2.4%,-0.3,-2.0%,0.3%,-11.4%[38.3 µM],3.3%,2.6
O=C(NC(=S)Nc1ccccc1N1CCCC1)c1ccc(-c2cccc([N+](=O)[O-])c2)o1,-15.6%,?,-29.6%,-1.8%,9.5%[38.3 µM],-5.9%,-4.4
CNC1=C([N+](=O)[O-])CC([N+](=O)[O-])=C(N2CCNCC2)N1C,14.5%,-7.7,-22.6%,-1.8%,3.4%,19.2%,4.7
Fc1cccc(/C=C2\CCCC3=C2NC(=S)NC3c2cccc(F)c2)c1 (centres undefined),-34.7%,2.4,-2.4%,1.4%,0.6%,?,-7.6
CN(C)S(=O)(=O)c1cccc(NC(=S)N/N=C/C(c2ccccc2)c2ccccc2)c1,-7.1%,3.5,-8.6%,-0.9%,2.2%,?,-8.6
CC(C)(C)n1cnc2cc(NC(=O)c3ccccc3)ccc21,-12.2%,1.2,24.7%[15.4 µM],-0.2%,-0.7%,15.1%,3.7
Cc1cccc(NC(=S)NNC(=O)c2cccc([N+](=O)[O-])c2)c1,-13.7%,-0.6,-10.6%[15.4 µM],/,0.9%,0.4%,-5.8
Cc1cc2cc(CNC(=O)c3ccc(Br)o3)ccc2[nH]1,0.2%,?,-38.4%[inhibitor],-0.8%,2.9%,-1.5%,-2.0
O=C(NCc1ccccc1)c1onc(CSc2ccc(F)c(F)c2)c1C(=O)NCc1ccccc1,-10.0%,/,-21.0%,3.9%,-0.2%,/,-1.3
CC(C)C(C(=O)O)N1C(=O)/C(=C/C=C/c2ccco2)SC1=S (centres undefined),?,?,-30.2%[inhibitor],-2.8%,-2.1%,20µM*,-1.0

# Further results follow:
SMILES,gsp antagonist,Menin MLL FP FL,gsp agonist,ClpP mod,PINK1 modulator,Sfp inh,D2 agonist
OC(COc1ccc2ccccc2c1Br)Cn1ccnc1 (centres undefined),9.6%,1.8,?,-1.1%,-2.1%,18.5%,-0.9
Cn1c(S(=O)(=O)Cc2ccc(Cl)cc2)nc2ccccc21,-0.7%,2.7,-19.9%,0.2%,1.1%,12.5%,2.8
O=C(NCc1cccnc1)c1cc(C(=O)NCc2cccnc2)cc([N+](=O)[O-])c1,/,/,?,-1.0%,-0.4%,/,-0.8
CC(C)c1c(C(=O)N/N=C/c2ccsc2)nnn1-c1nonc1N,-7.2%,/,27.5%,-0.7%,-0.9%,19.4%,0.4
S=c1nc(-c2ccccc2Br)[nH][nH]1,-6.2%,0.9,-13.2%,-0.6%,2.2%[38.3 µM],-12.4%,4.6
C=CCNc1oc(Cc2cccc3ccccc23)nc1C#N,3.8%,-0.9,-22.5%,-1.4%,1.8%,-7.9%,1.3
COc1ccccc1CN1CCNC(=O)C1CC(=O)N(C)CC1CCOCC1 (centres undefined),8.3%,/,-1.5%,-3.9%,-1.3%,18.4%,-3.1
O=C(C[C@H]1C[C@@H]2c3cc(NC(=O)c4ccc5c(c4)OCO5)ccc3O[C@@H]2[C@H](CO)O1)NCc1cc(F)ccc1F,/,/,?,1.2%,2.0%,/,-7.9
CCOc1ccc(C(=O)Nc2ccc(NC(=O)c3cccs3)cc2)cc1[N+](=O)[O-],7.6%,2.7,-3.4%[15.4 µM],-4.1%,?,8.3%,-2.8
COc1cc(C)c(C(C)C)cc1S(=O)(=O)NC1CC(C)(C)NC(C)(C)C1,8.5%,-1.6,6.0%,/,-0.2%,10.9%,-4.3
Cc1ccc(S(=O)(=O)N(CC(O)CN2CCCC2)c2ccccc2)cc1 (centres undefined),-9.4%,4.3,-36.5%[inhibitor],0.7%,?,2.4%,0.1
Cc1cc(C)[n+]2[nH]c(N)c(N=Nc3ccccc3)c2n1,?,0.5,-0.8%[15.4 µM],/,2.7%,22.4%,1.0
O=C(O)C1CCN(c2ccc(S(=O)(=O)N3CCCCC3)cc2[N+](=O)[O-])CC1,-8.6%,/,-32.9%[inhibitor],1.0%,-3.4%,/,-6.3
Cc1ccccc1-c1nc(-c2ccc(Br)o2)no1,-9.5%,12.5,6.6%,/,3.0%,-4.3%,0.7
Cc1ccc(NC(=O)C(=Cc2ccc(C(=O)O)cc2)C(=O)Nc2ccc(C)cc2C)c(C)c1,-16.3%,2.3,18.7%,1.1%,-0.8%,-4.9%,-5.2
C=CCn1c(=NC(=O)c2ccc(S(=O)(=O)N3CCCc4ccccc43)cc2)sc2cc(S(N)(=O)=O)ccc21,-12.5%,8.2,-0.9%,-0.7%,0.5%,18.0%,-0.8
O=C(CN1CCc2ccccc2C1)Nc1ccc(F)cc1,4.3%,-3.1,-23.4%,1.5%,1.5%,19.7%,1.4
Cc1nnc(NC(=O)c2ccc3nccnc3c2)s1,-29.3%,/,5.4%[15.4 µM],/,0.1%,/,-3.4
Cc1ccc(NS(=O)(=O)c2ccc(C(=O)Nc3nncs3)cc2)cc1,-7.3%,/,-8.3%,/,0.7%,/,?
COc1ccc(CCNC2CCC(c3ccccc3)CC2)cc1 (centres undefined),5.4%,-2.4,4.5%[15.4 µM],-1.2%,14.7%,-6.4%,12.0
COc1ccc(C(=O)CN2C(=O)NC3(CCCCCC3)C2=O)c(OC)c1,12.1%,/,-1.4%,0.5%,0.6%,/,-1.0
CCC1(CC)C(C#N)C(=O)NC(=O)C1C#N (centres undefined),-4.1%,/,1.2%,/,0.9%,/,-4.0
CSc1ccc(NC(=O)C2(C)CCN2C(=O)c2ccccc2CCc2ccccc2)cc1 (centres undefined),/,/,/,-2.9%,0.7%,/,-3.5
Cc1cccc(C)c1Nc1nnc(SC/C(O)=C(\C#N)c2nc3ccccc3[nH]2)s1,-4.0%,15.7,?,-14.6%,2.0%,-0.3%,-2.7
COc1ccc(-n2cccc2C=O)cc1OC,3.1%,4.8,-20.5%,4.3%,2.7%[38.3 µM],4.1%,-1.3

# Next part:
SMILES,gsp antagonist,Menin MLL FP FL,gsp agonist,ClpP mod,PINK1 modulator,Sfp inh,D2 agonist
Cc1cccc(OCC(=O)Nc2ccc3c(c2)nc(CCN2CCC(C)CC2)n3C)c1,-15.1%,1.1,-25.7%,-9.2%,0.4%,16.7%,-4.5
O=C(Cn1cnc2ccccc2c1=O)N1CCN(Cc2ccc3c(c2)OCO3)CC1,5.8%,1.5,13.2%,2.2%,0.4%,19.1%,?
Cn1c(=O)n(C)c2cc(S(=O)(=O)Nc3cc(Cl)ccc3O)ccc21,-14.1%,-1.2,1.7%[15.4 µM],/,-1.0%,5.4%,5.8
CCOC(=O)c1c(C)[nH]c(C(=O)CN2CCN(CC)CC2)c1C,12.0%,-1.7,13.4%,1.5%,-0.3%,79.4µM*,-2.8
O=Cc1coc2ccc3ccccc3c2c1=O,6.3%,5.6,1.0%[15.4 µM],0.0%,1.1%,16.1%,-0.9
CCOc1ccc(NC2=C(Cl)C(=O)N(Cc3ccccc3)C2=O)cc1,-9.6%,1.4,-15.3%,0.4%,3.8%[38.3 µM],13.4%,-1.7
O[C@H]1C[C@H](c2ccccc2)N(Cc2cccs2)C[C@@H]1n1cc(-c2ccc(F)cc2)nn1,/,/,?,0.6%,-2.8%,/,-0.2
COc1ccc(C(CC(=O)O)NS(=O)(=O)c2ccc3c(c2)NC(=O)CO3)cc1 (centres undefined),7.4%,/,?,/,5.3%,15.6%,1.7
COc1ccc(N2CCN(c3nc4ccc(C)cn4c(=O)c3C=O)CC2)cc1,-6.5%,3.6,-72.4%[inhibitor],1.9%,0.5%,10.3%,0.0
CCOC(=O)C1(CCc2ccccc2)CCN(C(=O)C2CCCO2)CC1 (centres undefined),-4.4%,2.9,-10.3%[15.4 µM],/,0.3%,15.4%,-1.8

# Compound activity from PubChem.
